# Screening data from PubChem BioAssay.
# HCMV UL50-53 inh = inhibitors of HCMV UL50-UL53 nuclear egress complex interaction; HTRF UL50-UL53 interaction, normalized percent inhibition; inhibition, % (concentration not given with the values); 0.15% of 190,000 active; AID 1918969;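 active = both replicates at 50% or more, plus weaker picks with an unusually low signal ratio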;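 also: stock transfer was 100 nL into about 20 µL; 0% = negative control wells and 100% = wells with untagged competitor protein; inactives centre near -12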
# Sa growth inh = inhibitors of Staphylococcus aureus growth at 42 °C; 0.53% of 170,000 active; relative growth, % (no concentration beside the values); S. aureus RN4220 growth, OD600, 20 h; hits give low values;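 active = growth at 42 °C up to 50% and 20 or more points under that at 30 °C, or under 10% at both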;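 also: 300 nL library stock went into each well; scaled to the means of positive and negative controls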
# GIV Gai3 FP = GIV-Galpha-i interaction inhibition; Galpha-i3/FITC-GIV peptide fluorescence polarization, 90 min; hits give low values; scaled: aluminum fluoride 0%, vehicle 100%; percent of control (FP), % (concentration not given with the values); P08753; 0.42% of 210,000 active; AID 1224905;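 active = replicate mean at 85% of control or lower, very high polarization wells dropped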;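 also: wells of about 15 µL received 100 nL stock; the first replicate is given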
# Target sequence (P08753 whole entry, looked up): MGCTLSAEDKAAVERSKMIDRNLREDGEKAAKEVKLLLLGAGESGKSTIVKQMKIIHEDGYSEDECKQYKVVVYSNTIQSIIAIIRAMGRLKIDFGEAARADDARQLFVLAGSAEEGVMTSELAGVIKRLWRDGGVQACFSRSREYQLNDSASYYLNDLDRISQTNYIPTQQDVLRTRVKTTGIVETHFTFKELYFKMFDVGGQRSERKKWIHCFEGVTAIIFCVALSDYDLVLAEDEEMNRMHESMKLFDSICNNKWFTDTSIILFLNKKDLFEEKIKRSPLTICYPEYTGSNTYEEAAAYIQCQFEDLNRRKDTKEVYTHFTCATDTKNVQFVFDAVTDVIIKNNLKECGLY
# Sa growth inh second temp = second read-out of Sa growth inh, no call of its own (marks repeat the call); relative growth, %; measured here: growth at 30 °C;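 optical density after 20 h as mean of two plates; 100% = untreated growth and lower means inhibition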
# The depositor's hits bear a star; x = not tested or not shown. Not a hit list, and some 0.85% of all compounds hit somewhere here.
# Abbreviations – A = HCMV UL50-53 inh; B = Sa growth inh; C = Sa growth inh second temp; D = GIV Gai3 FP
> O=C(NCCN1CCN(S(=O)(=O)c2ccc(Cl)cc2)CC1)C(=O)Nc1ccc(F)cc1
  A: -18 | B: x | C: x | D: 95

> Cc1ccccc1CNC(=O)c1cccc(NC(=O)N2CCSc3ncccc32)c1
  A: x | B: 111 | C: 100 | D: 111

> Oc1ccc(Cl)cc1Nc1nc2ccccc2n2cnnc12
  A: -22 | B: 103 | C: 87 | D: 106

> CSc1nsc(SC)c1C(=O)Nc1nn(C)c2cccc(F)c12
  A: 2 | B: 115 | C: 88 | D: 99

> C#CCn1c(COc2ccccc2)nc2ccccc21
  A: 10 | B: 83 | C: 94 | D: 99

> N#Cc1cc(C#N)c(SCc2cc3c(cc2Br)OCO3)nc1N
  A: -8 | B: 95 | C: 75 | D: x

> Cc1ccc(Cn2c(C(=O)O)c(CNCc3cccs3)c3ccc(C)cc32)cc1
  A: x | B: 94 | C: 41 | D: 103

> CN1C(=O)SC(CC(=O)O)C1=O (stereo not given)
  A: -2 | B: 100 | C: 98 | D: 103

> NC(=S)/N=N/Nc1ccc(Cl)cc1
  A: -72 | B: 68 | C: 57 | D: x

> CSc1nc2sc3c(c2c(=O)n1-c1ccccc1)CCN(C)C3
  A: -9 | B: 102 | C: 115 | D: 104

> OC(CSc1nc2ccccc2s1)C(F)(F)F (stereo not given)
  A: -18 | B: x | C: x | D: 102

> Cc1ccc(/C(O)=C2\C(=O)C(=O)N(Cc3cccnc3)C2c2ccccn2)cc1 (stereo not given)
  A: -35 | B: 123 | C: 101 | D: 103

> COc1ccccc1CNC(=O)c1ccc(N2CCCC2)c(NC(=O)NCc2ccccc2)c1
  A: x | B: 90 | C: 87 | D: 101

> O=C(Oc1ccccc1)N1CCCCC1
  A: 0 | B: 100 | C: 93 | D: 107

> CN(Cc1ccc(C#N)cc1)S(=O)(=O)/C=C/c1ccccc1
  A: -2 | B: 91 | C: 99 | D: x

> CCCN(CCC)C(=O)Cn1c(=O)n(-c2ccc(Cl)cc2)c(=O)c2c3c(sc21)CCC3
  A: x | B: 100 | C: 90 | D: 100

> Cc1onc(-c2c(Cl)cccc2Cl)c1C(=O)c1ccc(F)cc1
  A: 4 | B: 88 | C: 97 | D: 114

> Cc1ccc(Cn2nc(C)c(/C=N/NC(=O)c3ccc4c(c3)OCO4)c2C)cc1
  A: -16 | B: 94 | C: 96 | D: x

> COc1ccccc1NC(=O)COC(=O)C1CC2CCCC(C1)C2=O (stereo not given)
  A: -19 | B: 71 | C: 88 | D: x

> CCN(CC)c1cc(Nc2ccc(NS(=O)(=O)c3ccc(F)cc3)cc2)nc(C)n1
  A: -5 | B: x | C: x | D: 110

> O=C(NCCN1CCCC1)c1ccc(NC(=O)N2CCSc3ncccc32)cc1
  A: -5 | B: x | C: x | D: 104

> O=C(OCc1ccccc1)C1CC2C=CC1C2 (stereo not given)
  A: -15 | B: 105 | C: 89 | D: x

> COc1ccc2c(c1OC)C(=O)OC2NN(C)c1cccc(F)c1C#N (stereo not given)
  A: -24 | B: 89 | C: 90 | D: 105

> O=c1[nH]c2ccccc2n1CCCN1CCN(C(c2ccccc2)c2ccccc2)CC1
  A: -44 | B: 98 | C: 78 | D: 104

> Cc1ccc2nc(CN3CCN(C/C=C/c4ccccc4)CC3)cn2c1
  A: -9 | B: 101 | C: 91 | D: x

# Abbreviations – A = HCMV UL50-53 inh; B = Sa growth inh; C = Sa growth inh second temp; D = GIV Gai3 FP
> COc1cccc(-c2cn3c(n2)sc2cc(C(=O)NCCC4=CCCCC4)ccc23)c1
  A: x | B: 118 | C: 76 | D: 106

> CCn1cc(C(=O)NCCCN2CCC(C)CC2)c(=O)c2cc(S(=O)(=O)N(C)C3CCCCC3)ccc21
  A: -31 | B: 104 | C: 85 | D: 101

> O=C(NCCn1c(C(F)(F)F)nc2cccnc21)Nc1ccc(Br)cc1F
  A: -11 | B: x | C: x | D: 109

> Cc1ccc(CNS(=O)(=O)c2cc3c(cc2Cl)NC(=O)CO3)o1
  A: x | B: 112 | C: 100 | D: 104

> CCCc1c(C(=O)N2CC(C)OC(C)C2)cnn1-c1ccccc1 (stereo not given)
  A: -22 | B: 84 | C: 84 | D: 101

> Cc1nc(N)sc1N=Nc1cccc2ccccc12
  A: -42 | B: 104 | C: 83 | D: x

> Cc1ccc(NC(=O)c2ccccc2O)cc1
  A: -26 | B: 58 | C: 18 | D: x

> CCN1CCN(Cc2cc(=O)n3[nH]c(-c4ccccc4)nc3n2)CC1
  A: -5 | B: x | C: x | D: 101

> Cc1ccc(C)c(CSC2=NC(C)(C)Nc3ccccc32)c1
  A: x | B: 76 | C: 91 | D: 100

> COc1ccc(-c2noc(N3CCC(C(=O)NCc4cccc(Cl)c4)CC3)n2)cc1
  A: x | B: 112 | C: 99 | D: 102

> O=C(Nc1ccccc1Cl)N1CCC2(CC1)Oc1ccccc1C(=O)N2Cc1ccc(F)cc1
  A: -16 | B: 108 | C: 95 | D: 104

> O=C(O)c1cc(N2CCNCC2)nc2ccccc12
  A: 6 | B: 105 | C: 93 | D: 102

> CC1(C)CC2(CCO1)OC(=O)CC2C(=O)NC1CCCCC1 (stereo not given)
  A: -11 | B: 91 | C: 88 | D: 102

> COc1cc(CN(C)C(=O)c2cc(C)on2)ccc1OCc1ccccc1
  A: 11 | B: 118 | C: 96 | D: x

> Fc1ccc(N=Cc2ccco2)c(F)c1F
  A: -27 | B: 95 | C: 89 | D: x

> O=C(CNC(=O)c1cccs1)OCc1ccc(Cl)cc1
  A: -15 | B: 100 | C: 69 | D: 101

> Fc1ccccc1-c1ccc(CNCc2ccc3c(c2)OCO3)o1
  A: -14 | B: x | C: x | D: 102

> CC(=O)c1cccc(NC(=O)CN2C(=O)c3ccccc3Sc3ncccc32)c1
  A: x | B: 119 | C: 84 | D: 103

> O=C(CSc1ccccc1)Nc1c[nH]c(=O)[nH]c1=O
  A: -12 | B: 110 | C: 73 | D: 100

> O=C1C=CC(=O)N1c1cccc2c1CCCC2
  A: 1 | B: 70 | C: 44 | D: 103

> CCOC(=O)C1=C(C)NC(C)=C(C(=O)OCC)C1C(=O)OCc1nnc(-c2ccccc2)o1
  A: -30 | B: 91 | C: 83 | D: x

> CNC(=O)c1ccc2c(c1)CCO2
  A: -7 | B: 102 | C: 88 | D: 100

> CC1CCCC(C)N1C(=O)Cn1c(SCC(=O)NCc2ccco2)nc2ccccc21 (stereo not given)
  A: -15 | B: 117 | C: 93 | D: 102

> CCCCNC(=O)CC1SC(=NC(c2ccc(OC)cc2)c2c(O)[nH]c(=O)[nH]c2=O)NC1=O (stereo not given)
  A: 10 | B: 103 | C: 93 | D: 105

> Cc1cc(-c2cc(S(=O)(=O)N3CCCCC3)c(C)s2)on1
  A: -26 | B: x | C: x | D: 103

# Results in GIV Gai3 FP, Sa growth inh second temp and HCMV UL50-53 inh (2 entries from above):
compound | GIV Gai3 FP | Sa growth inh second temp | HCMV UL50-53 inh
Fc1ccc(N=Cc2ccco2)c(F)c1F | x | 89 | -27
O=C(CNC(=O)c1cccs1)OCc1ccc(Cl)cc1 | 101 | 69 | -15

# Continuation:
compound | HCMV UL50-53 inh | Sa growth inh | Sa growth inh second temp | GIV Gai3 FP
CCc1c(C)nc2sc(C)n[n+]2c1C | -6 | 116 | 93 | x
O=C(c1cc(-c2ccc(F)cc2)on1)N1CCOCC1 | -15 | x | x | 98
CC(NC(=O)C1(c2ccccc2)CCCC1)C1COc2ccccc2O1 (stereo not given) | -6 | x | x | 93
O=C(NCCCN1CCOCC1)c1cc2c(s1)CCCC2 | -20 | 107 | 84 | x
COc1ccccc1N1CCN(C(=O)C(CCSC)NS(=O)(=O)c2ccc3c(c2)oc(=O)n3C)CC1 (stereo not given) | x | 105 | 92 | 94
O=[N+]([O-])OCC(CO[N+](=O)[O-])O[N+](=O)[O-] | -56 | 97 | 80 | x
CCn1c(=O)c2sccc2n2c(=S)sc(-c3ccccc3)c12 | 3 | 101 | 84 | 99
c1ccc(N2CCN(c3ncnc4scc(-c5cccs5)c34)CC2)cc1 | -3 | 95 | 100 | 97
COc1cc(-c2nc3nc[nH]n3c2Nc2ccc(C)cc2)ccc1O | -12 | x | x | 98
Cc1ccc2c(CN3CCN(c4ccc(Cl)cc4)CC3)cc(=O)oc2c1 | -28 | 103 | 86 | 97
O=C(NCCN1C(=O)C2C3C=CC(C3)C2C1=O)OC1CCCCC1 (stereo not given) | -3 | 101 | 101 | 110
Cc1cccc(C)c1NC(=O)CCCN1C(=O)NC2(CCCC2)C1=O | 3 | 100 | 99 | x
CC1CCN(C(=O)CSc2n[nH]c(-c3ccccc3)n2)CC1 | -20 | 103 | 95 | x
Cc1ccc(NC(=O)CCSc2nc(-c3ccc4c(c3)OCO4)cc(C(F)(F)F)n2)c(C)c1 | -34 | 86 | 87 | 104
Cc1nc(SCC(=O)O)n[nH]1 | -6 | 79 | 92 | 100
CCN(CC)CCC(=O)c1ccc(F)cc1 | 7 | 71 | 77 | x
O=C(Nc1ccc(-n2cnnn2)cc1)c1ccccc1 | -22 | x | x | 104
Cc1nn(-c2ccccc2)c(-c2ccc(O)cc2O)c1-c1ccccn1 | 2 | 117 | 101 | x
Cc1cc(C)cc(NC(=O)N2CCSc3nc(C)cc(C)c32)c1 | -7 | x | x | 102
CC(C)N(CC(N)=O)C(=O)c1ccc(F)c(S(=O)(=O)N2CCCCC2)c1 | -13 | 110 | 95 | x
O=C1CC(NCCc2c[nH]c3ccccc23)C(=O)N1Cc1ccccc1 (stereo not given) | -23 | 93 | 104 | 100
COc1ccc(C2NCCC3(O)CCCCC23)cc1 (stereo not given) | -14 | 84 | 85 | 105
N#Cc1ccc(OC(=O)c2cccc(-n3cccc3)c2)cc1 | -35 | 80 | 90 | x
Cc1ccc(NC(=O)CSc2nc3ccc(NC(=O)c4ccco4)cc3s2)cc1 | -27 | 96 | 86 | 97
COc1cccc(CNCc2c(C(=O)O)c(C)n(-c3ccc(C)cc3)c2C)c1 | -23 | x | x | 140
N#CCOC(=O)c1cc(-c2ccccc2)nc2ccccc12 | -53 | 101 | 85 | x
CCOC(=O)c1c(NC(=O)c2ccc(OC)cc2)sc2c1CCCCC2 | -19 | 97 | 84 | 106
CCOC(=O)c1cc(-c2ccccc2)n(-c2cccc(C(=O)N(C)c3ccc(C)cc3)c2)c1C | x | 91 | 93 | 101
O/N=C(\c1ccccc1)C12CC3CC(CC(C3)C1)C2 | x | 109 | 94 | 99
COc1cccc(NC(=O)Nc2ccc3nc(SCC(=O)Nc4ccc(C)cc4)sc3c2)c1 | -23 | x | x | 104

compound | HCMV UL50-53 inh | Sa growth inh | Sa growth inh second temp | GIV Gai3 FP
CCN(CC)S(=O)(=O)c1ccc(C(=O)NCCc2cc3ccc(OC)cc3[nH]c2=O)cc1 | -5 | 99 | 90 | 108
CCCNC(=O)c1ccccc1NC(=O)C(C)Oc1ccc(Cl)cc1 (stereo not given) | -3 | 94 | 64 | 95
COc1ccc(OC)c(CNC(=O)CSc2nc3ncccc3n3cccc23)c1 | -37 | x | x | 107
Cc1cc(C(C#N)c2nc3ccccc3o2)nc(N2CCN(C(c3ccccc3)c3ccccc3)CC2)n1 (stereo not given) | 2 | 84 | 94 | x
CC(C)(C)c1cc(N/C=C/C(=O)c2ccc(Cl)cc2)no1 | -27 | 95 | 83 | 96
CC1Cc2ccccc2N1C(=O)C1CCCN1S(=O)(=O)c1cccc2nsnc12 (stereo not given) | x | 100 | 85 | 104
Cc1cc(Oc2ccnc3cc(Cl)ccc23)ccc1Cl | -12 | 66 | 78 | 99
CCOc1ccc(S(=O)(=O)NCc2nc(-c3ccccc3)oc2C)cc1 | -11 | x | x | 102
S=C1NC2=C(CCCC2)C2(CCCCC2)N1 | -24 | 93 | 81 | 100
COCc1cc(C)nc(NN)c1C#N | -12 | 87 | 80 | 104
COc1cccc(NC(=O)CC2Oc3ccccc3NC2=O)c1 (stereo not given) | -28 | 91 | 84 | 102
COC(=O)CS(=O)(=O)c1ccc2c(c1)S(=O)(=O)N=CN2 | -16 | x | x | 94

# Among those listed so far, these have two or more sulfur atoms.
compound | HCMV UL50-53 inh | Sa growth inh | Sa growth inh second temp | GIV Gai3 FP
CSc1nsc(SC)c1C(=O)Nc1nn(C)c2cccc(F)c12 | 2 | 115 | 88 | 99
CSc1nc2sc3c(c2c(=O)n1-c1ccccc1)CCN(C)C3 | -9 | 102 | 115 | 104
OC(CSc1nc2ccccc2s1)C(F)(F)F (stereo not given) | -18 | x | x | 102
Cc1cc(-c2cc(S(=O)(=O)N3CCCCC3)c(C)s2)on1 | -26 | x | x | 103
COc1ccccc1N1CCN(C(=O)C(CCSC)NS(=O)(=O)c2ccc3c(c2)oc(=O)n3C)CC1 (stereo not given) | x | 105 | 92 | 94
CCn1c(=O)c2sccc2n2c(=S)sc(-c3ccccc3)c12 | 3 | 101 | 84 | 99
c1ccc(N2CCN(c3ncnc4scc(-c5cccs5)c34)CC2)cc1 | -3 | 95 | 100 | 97
Cc1ccc(NC(=O)CSc2nc3ccc(NC(=O)c4ccco4)cc3s2)cc1 | -27 | 96 | 86 | 97
COc1cccc(NC(=O)Nc2ccc3nc(SCC(=O)Nc4ccc(C)cc4)sc3c2)c1 | -23 | x | x | 104
CC1Cc2ccccc2N1C(=O)C1CCCN1S(=O)(=O)c1cccc2nsnc12 (stereo not given) | x | 100 | 85 | 104
COC(=O)CS(=O)(=O)c1ccc2c(c1)S(=O)(=O)N=CN2 | -16 | x | x | 94
